Screening data from PubChem BioAssay.
HIV TAR-Tat: HIV-1 TAR-Tat binding disruption; HIV-1 TAR RNA, Tat peptide displacement FRET; active compounds read high; z-score (concentration not given with the values); 100,000 tested, 0.6% active; AID 1259389;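 also: score is relative to mean and SD of negative controls; some compounds called inactive have numbers as strong as hits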
CDC25B-CDK2 inh: human CDC25B-CDK2/CyclinA binding inhibition; P30305+P24941; HTRF CDC25B-CDK2/CyclinA binding, anti-His/anti-Flag; active compounds read high; z-score (no concentration beside the values); 94,000 tested, 0.72% active; AID 1259370;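 also: score is relative to mean and SD of negative controls; strong numbers were not always called active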
The depositor's hits bear a star; nt = no result given.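 The calls were made as follows: active = z-score from 3 up in half or more of its runs; inactive = the rest.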

SMILES | HIV TAR-Tat | CDC25B-CDK2 inh
C/C(=N\N=C1\NC(=O)C(CC(=O)Nc2cccc(C)c2C)S1)c1ccccc1 (stereo unspecified) | nt | -0.89
Cc1nc(-c2c(Cl)cc(C(F)(F)F)cc2Cl)sc1C(=O)/C=C/N(C)C | nt | -0.85
CSc1ccc(C(=O)Nc2nc(-c3cccnc3)cs2)cc1 | 0.94 | nt
O=C(Cn1c(=O)sc2ccccc21)Nc1ccc(F)c(F)c1 | nt | -0.11
CCc1nnc(NC(=O)C2CC(=O)N(CCc3c[nH]c4ccc(Cl)cc34)C2)s1 (stereo unspecified) | -1 | -0.01
CCC1(C)Cc2c(sc3nc(SCCC(C)C)nc(N)c23)CO1 (stereo unspecified) | nt | -8.3
COc1cc(OC)c(N(C)C(=O)c2c(C)oc3ncnc(N4CCOCC4)c23)cc1Cl | 1.9 | nt
O=c1cc(CSc2ccc(Cl)cc2)[nH]n1-c1ccccc1 | -0.99 | -1.7
O=C(CC1SC(=O)NC1=O)Nc1nccs1 (stereo unspecified) | nt | -0.75
CCCCS(=O)(=O)c1oc(-c2cccs2)nc1S(=O)(=O)c1ccc(C)cc1 | 0.73 | -2.4
CCOC(=O)Cn1nc(-c2ccc(C)c(S(=O)(=O)N3CCCC3)c2)ccc1=O | 0.03 | -1.7
COCCNC(=O)c1c(NC(=O)c2cc(=O)c3ccccc3o2)sc2c1CCCC2 | 2.5 | -1.2
CCCCC(=O)Nc1nnc(Cc2nc3ccccc3[nH]2)s1 | -1.4 | -0.18
CCSc1nc2c(c(=O)[nH]1)C(c1cccc(F)c1F)CC(=O)N2 (stereo unspecified) | 2 | 1.4
CCN(CC)CCCNc1nc(-c2ccc(Cl)cc2)nc2ccccc12 | 1.3 | -1.1
c1ccc(-c2nnc(-c3ccccc3)c3nonc23)cc1 | 1.5 | -2
O=C(Nc1ccc(O)c(-c2nc3ccccc3o2)c1)c1ccc(-c2ccccc2)cc1 | nt | -2.5
CCC1CCCCN1CCCNC(=O)C1CCN(c2nnc(N3CCCC3=O)s2)CC1 (stereo unspecified) | -0.15 | -1.3
COc1cc(/C=N/n2cnc3c(sc(=S)n3C)c2=O)ccc1O | nt | 0.79
Cn1cnc([N+](=O)[O-])c1N1CCN(c2ccc(C(F)(F)F)cn2)CC1 | nt | -1.5
CCCCN(CCCC)C(=O)c1cc(-c2ccco2)[nH]n1 | -6.7 | nt
O=C(CN1C(=O)c2ccccc2C1=O)OCCOCCN=C1NS(=O)(=O)c2ccccc21 | nt | -1.8
O=C(CCCn1sc2ccccc2c1=O)NCc1ccccc1Cl | 1.1 | -1.5
CC12CN3CC(C)(CN(C1)C3c1ccccc1O)C2=O (stereo unspecified) | 1.2 | -0.36
Cc1n[nH]c(=O)nc1SCC(=O)Nc1ccc(Cl)cc1 | -0.75 | -2.5

A draw from above in order of length of the SMILES, low to high.
SMILES | HIV TAR-Tat | CDC25B-CDK2 inh
CCCCC(=O)Nc1nnc(Cc2nc3ccccc3[nH]2)s1 | -1.4 | -0.18
O=C(Cn1c(=O)sc2ccccc21)Nc1ccc(F)c(F)c1 | nt | -0.11
CCC1(C)Cc2c(sc3nc(SCCC(C)C)nc(N)c23)CO1 (stereo unspecified) | nt | -8.3
Cc1nc(-c2c(Cl)cc(C(F)(F)F)cc2Cl)sc1C(=O)/C=C/N(C)C | nt | -0.85
CCOC(=O)Cn1nc(-c2ccc(C)c(S(=O)(=O)N3CCCC3)c2)ccc1=O | 0.03 | -1.7
COc1cc(OC)c(N(C)C(=O)c2c(C)oc3ncnc(N4CCOCC4)c23)cc1Cl | 1.9 | nt

Further records.
SMILES | HIV TAR-Tat | CDC25B-CDK2 inh
CCN(CC)c1ccc(CN(C(=O)c2cc(=O)c3cc(C)ccc3o2)C2CCS(=O)(=O)C2)cc1 (stereo unspecified) | 1.1 | -2.1
Cc1nn(C(C)C(=O)NCc2ccco2)c(=O)c2cc3occc3n12 (stereo unspecified) | 0.25 | -0.04
CC(C)c1ccc(Nc2c(-c3ccc4c(c3)OCC(=O)N4)c(=O)c2=O)cc1 | 0.83 | nt
CC(C)(C)C(=O)Nc1c(C(=O)N2CCN(C(=O)c3ccco3)CC2)oc2ccccc12 | 0.92 | nt
Cc1ccccc1NC(=O)c1ccc(F)c(S(=O)(=O)N2CCN(c3ccccc3)CC2)c1 | nt | -1.6
COc1ccc(C)cc1NC(=O)CSc1nc(-c2ccc3c(c2)OCO3)nc2cc(=O)[nH]n12 | 2.5 | nt
CC(C)CNC(=O)C(=O)NCc1n[nH]c(=O)c2ccccc12 | 2.3 | nt
COCCNC(=O)C1=C(C)C(=O)OC12CCN(C(C)=O)CC2 | 1.7 | nt
CCOc1ccc(OCC)c(Nc2cc(C)nc3nc(-c4ccco4)nn23)c1 | 1.3 | nt
CC1Oc2ccccc2N(CC(=O)N2CCN(C(=O)c3nsc4ccccc34)CC2)C1=O (stereo unspecified) | 0.45 | nt
O=C(O)C1CCc2ccccc2O1 (stereo unspecified) | nt | -0.76
COc1ccc(OC)c(-c2noc(Nc3ccc(OC)c(OC)c3)n2)c1 | -0.55 | nt
Cc1ccccc1OCc1n[nH]c(=S)n1-c1ccccc1 | nt | 0.19
CSc1ncc2c(=O)n(CC3CCCO3)ccc2n1 (stereo unspecified) | 0.32 | 1.7
CCOC(=O)N/N=C(\C)c1cc(OCC(F)(F)F)ccc1OCC(F)(F)F | nt | -2.5
CCCN(CCC)C(=O)Cn1ncc2c(=O)oc3ccccc3c21 | 1.8 | -0.26
O=C(CC1(O)C(=O)N(Cc2ccccc2)c2ccc(Br)cc21)c1ccccn1 (stereo unspecified) | 0.66 | -2.4
O=C(NC1CCc2ccccc21)C1CCCN(S(=O)(=O)c2ccc(Cl)cc2)C1 (stereo unspecified) | 0.69 | -1.4
Cc1c(Cl)cccc1Nc1ncnc2c1cnn2C | -0.46 | nt
CCOc1ccccc1NS(=O)(=O)C1CCS(=O)(=O)C1 (stereo unspecified) | -0.2 | -0.36
Cn1nc(CC(=O)Nc2nncs2)c2ccccc2c1=O | 2.3 | -2.4
COc1ccc(CN2N=NC3C(=O)N(c4ccc(F)cc4)C(=O)C32)cc1 (stereo unspecified) | 0.69 | 1.3
O=S(=O)(CCN1CCC(n2cccc2)CC1)c1ccc(F)cc1 | nt | -0.89
COc1ccc(C2C3=C(CCCC3=O)Nc3n[nH]c(-c4ccccc4)c32)cc1 (stereo unspecified) | -0.04 | nt
CC1=C(C(=O)OCC2CCCO2)C(c2ccccc2Cl)C2=C(CCCC2=O)N1 (stereo unspecified) | 3.3 | -1.6
O=c1cc(CSc2nnc(-c3ccccc3)o2)nc2sccn12 | 1 | -2.8
C=C(C)Cn1c(=O)c2c(nc3n2CCN3c2ccc(CC)cc2)n(C)c1=O | 2.7 | nt
CN1C(=O)NC(c2ccc(Cl)cc2)C2=C1CC(C)(C)CC2=O (stereo unspecified) | nt | -0.34
O=C(NCc1ccc2c(c1)OCO2)c1cc(-c2cccs2)nn1Cc1ccc(F)cc1 | -0.29 | -1.6
CNc1sc(S(=O)(=O)c2ccccc2)nc1S(=O)(=O)c1ccc(C)cc1 | -0.49 | -2
CCOC(=O)COc1ccc2c(C(F)(F)F)cc(=O)oc2c1 | nt | -1.5
NC(=O)NCCc1ccccc1 | nt | -2.4
CCOC(=O)C1=C(C)Nc2nc3ccccc3n2C1c1ccc(OCC)cc1 (stereo unspecified) | 0.61 | -0.79
CCCn1c(Cn2ccnc2C)nc2cc(NC(=O)c3ccco3)ccc21 | 0.15 | -0.02
Cc1cccc(OCc2nc(C#N)c(NCc3ccc4c(c3)OCO4)o2)c1 | 1.2 | 0.05
Cn1nc(CC(=O)Nc2nccs2)c2ccccc2c1=O | nt | -0.31
Cc1ccc2c(c1)CCCN2CC(=O)Nc1ccc(Cl)cc1C(=O)NCc1cccs1 | nt | -0.7
NC(=O)c1cc(S(=O)(=O)NC2CCCc3ccccc32)cs1 (stereo unspecified) | 0.81 | nt
Cc1ccc2nc3c(cc(C#N)c(=O)n3-c3nnc(SCc4ccccc4Cl)s3)c(=O)n2c1 | 1.1 | -29
CCc1cc2c(NC3CCC(C)CC3)ncnc2s1 (stereo unspecified) | 1.9 | nt
CC(C)Cc1nc2ccccc2n1C(C)C(=O)O (stereo unspecified) | 0.6 | -0.79
CCOc1ccc(-c2n[nH]c(=S)n2CC)cc1 | nt | -0.44
Cc1cc2c3c([nH]c2cc1S(=O)(=O)Nc1ccc(N2CCC(C)CC2)cc1)CCCC3=O | -1 | nt
Cc1nn2cnnc2c(C)c1CCC(=O)N1CCN(c2ncccn2)CC1 | 1.9 | nt
CCCS(=O)(=O)c1c(S(=O)(=O)CCC)c2ccc(C(N)=O)cn2c1C(=O)c1ccc(F)cc1 | 0.27 | -0.47
CN(C)Cc1ccc(CSCCNC(=O)Nc2ccc(OCc3ccccc3)cc2)o1 | nt | -1.1
N#CCCSc1ccccc1NC(=O)C(c1ccccc1)C1CCCC1 (stereo unspecified) | nt | 0.52
Cc1ccc(C)c(NC(=O)CSc2nncn3c2cc2occc23)c1 | -2.3 | nt
COc1cc2c(cc1OC)CC(=O)OC2 | nt | 2.8
COc1cccc(C2C=C(C(=O)O)Nc3nnnn32)c1 (stereo unspecified) | 1.1 | nt

More entries
SMILES | HIV TAR-Tat | CDC25B-CDK2 inh
CCC1(C)Cc2c(sc3[nH]c(=S)n(-c4ccc(C)cc4)c(=O)c23)CO1 (stereo unspecified) | nt | -0.96
Cc1cc2c(cc1S(=O)(=O)C(C)CC(=O)N1CCc3ccccc31)OCC(=O)N2 (stereo unspecified) | -0.69 | nt
Cc1cccc(N2CN(Cc3ccco3)CNC2=S)c1C | nt | -1.2
Cn1c(=O)c(=O)n(C)c2cc(NC(=O)c3ccco3)ccc21 | -0.51 | nt
Brc1cccc(-c2nnc3sc(CN4CCC5(CC4)OCCO5)cn23)c1 | nt | -1.1
O=C(Nc1nnc(SCc2cc(=O)c3ccccc3[nH]2)s1)c1ccco1 | 1.1 | nt
CC1CCCCN1CCCNC(=O)c1noc2c1CSc1ccccc1-2 (stereo unspecified) | -0.92 | -1.1
CCCCCCCCCCCCCC(=O)NCCOS(=O)(=O)O | nt | 0.21
O=C(Cc1c(C(=O)O)[nH]c2ccccc12)NC1CCCC1 | nt | 0.82
O=c1cc(-c2ccco2)oc2ccc(Cl)cc12 | -0.19 | -0.56
O=C(NCc1ccccc1)NCc1ccccc1 | nt | -0.12
C=CCOc1ccc(C2c3c(oc4ccc(C)cc4c3=O)C(=O)N2CCCN(C)C)cc1 (stereo unspecified) | 1.9 | -1.7
COc1cccc(C2C(C#N)=C3N=C(N)c4ccccc4N3C3=C2C(=O)CCC3)c1 (stereo unspecified) | -1.7 | -1.7
CCOC(=O)C1=C(C)NC2=C(C(=O)C(C(=O)OC)C(C)C2)C1c1ccccc1OCC (stereo unspecified) | -0.48 | -1.6
Cc1ccc(-c2onc(C)c2C)cc1S(=O)(=O)NCc1cccnc1 | 1.1 | nt
COc1ccc(CN2C(=O)c3oc4ccccc4c(=O)c3C2c2cccc(O)c2)cc1 (stereo unspecified) | 1.2 | -0.95
CCCSc1ncnc2c1sc1nc(-c3ccco3)c3c(c12)CC(C)(C)OC3 | 1.7 | -2.6
O=C(CSc1nc(-c2cccc(F)c2)[nH]c1-c1ccccc1)Nc1nccs1 | 0.6 | -1.1
CCC(C)(C(=O)NC1CCCCC1)N(C(=O)CC1NC(=O)NC1=O)c1ccccc1 (stereo unspecified) | nt | -0.84
Cc1ccc2c(c1)-c1c(cnc3cc(-c4ccc(F)cc4)nn13)CO2 | -1.4 | -0.77
CCCNC(=O)N1c2ccccc2NC2=C(C(=O)CCC2)C1c1ccco1 (stereo unspecified) | 1.6 | nt
Cc1nc2c(c(Nc3ccc(N4CCCCC4)cc3)n1)CCC2 | -1.2 | -1.5
Oc1ccc(-c2csc(NCc3ccco3)n2)cc1 | -0.76 | -0.32
CCOc1ccc(Nc2oc(COc3cccc(Cl)c3)nc2C#N)cc1 | 0.24 | -0.3
N#C/C(=C\Nc1nccs1)S(=O)(=O)c1ccc(Cl)cc1 | nt | -0.5

Profiles from above:
O=c1cc(-c2ccco2)oc2ccc(Cl)cc12 reads HIV TAR-Tat: -0.19; CDC25B-CDK2 inh: -0.56
COc1cccc(C2C(C#N)=C3N=C(N)c4ccccc4N3C3=C2C(=O)CCC3)c1 (stereo unspecified) reads HIV TAR-Tat: -1.7; CDC25B-CDK2 inh: -1.7

New compounds follow
SMILES | HIV TAR-Tat | CDC25B-CDK2 inh
Clc1ccccc1-n1cc(-c2ccccc2)c2c(NCCN3CCOCC3)ncnc21 | 0.7 | -1.4
COc1ccc(-c2csc3nc(-c4ccc(F)cc4)oc(=O)c23)cc1 | 0.47 | 0.72
O=C1CSc2ccc(S(=O)(=O)N3CCOCC3)cc2N1CC(=O)N1CCCC2CCCCC21 (stereo unspecified) | 0.05 | nt
O=C(O)CN1C(=O)C2CCCCN2c2ccc(C(=O)N3CCCCC3)cc21 (stereo unspecified) | 0.28 | nt
Cc1ccccc1CNc1nc2nc(C)c(Cl)c(C)n2n1 | 1.3 | -0.51
Cc1cc2c3c([nH]c2cc1S(=O)(=O)N(C)C1CCCCC1)CCCC3=O | 0.08 | nt
CCC(O)c1nc2ccccc2n1CCCOc1ccccc1Cl (stereo unspecified) | 0.92 | -1.5
CN1c2ccc(Cl)cc2-c2nc(SCC(=O)Nc3ccccc3)ncc2S1(=O)=O | -0.65 | nt
CCCc1n(CC(O)COc2cccc(Cl)c2)c2ccccc2[n+]1C (stereo unspecified) | 0.73 | 0.32
CCCC(=O)Nc1nnc(SCc2cc(=O)c3ccc(C)cc3[nH]2)s1 | -0.65 | nt
